Ecoli rRNA inh = reduced GFP signal of wild-type E. coli, primary screen, bacterial rRNA inhibitor project, GFP/RFP fluorescence, OD600, single point. E. coli WT GFP vs humanized-ribosome RFP mutants, 24 h; hits give low values; DMSO median 0, no signal -100. GFP signal change (wild-type ribosome), % (no concentration beside the values). 350,000 compounds, 1.6% hits;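 active means significant combined selectivity score with lowered wild-type GFP, culture density cut under 30%, mutant RFP and density less affected; inactive means any of these conditions unmet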; further: one replicate is shown; some compounds called inactive have numbers as strong as hits
T cruzi repl = inhibitors of intracellular T. cruzi growth, primary screen, luminescence, NIH3T3 host cells; AID 1885, 2009; 300,000 compounds, 1.4% hits; T. cruzi beta-gal in NIH3T3, 90 h; inhibition, % (test concentration not listed);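 active means mean inhibition across valid replicates above about 55%, limit read from the data; inconclusive means mean below that limit but half or more replicates reach it; inactive means mean below it, under half of replicates reach it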;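 further: signal also drops with host cell toxicity which is not excluded here; 0% = plate median of DMSO wells and 100% = zero luminescence signal; higher percent means less beta-gal luminescence so fewer parasites; stock transfer was 50 nL into about 50 µL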
Vif TR-FRET = inhibitors of Vif binding to APOBEC3G peptide, primary screen, biochemical, TR-FRET, GST-Vif 1-94, biotin-A3G peptide, dose response retest (AID 1117319). 260,000 compounds, 0.57% hits. TR-FRET GST-Vif / biotin-A3G peptide binding; higher % means a stronger effect; test concentration not given here; strong numbers were not always called active. one-dose inhibition, %; IC50 in µM for titrated hits. Virion infectivity factor (Human immunodeficiency virus type 1 group M subtype B (isolate …;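 active means above the screen mean plus three standard deviations and confirmed in dose response; inconclusive means results disagree or hit not tested in dose response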;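 further: Vif residues 1-94 fused to GST binding biotinylated APOBEC3G peptide 110-148; 0% = full assay without inhibitor and 100% = GST in place of GST-Vif; retest series ran down from 100 µM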
RanGTP-Impb inh = inhibitors of RanGTP-importin-beta interaction, primary screen, biochemical, FRET, CFP-Ran, YFP-importin-beta, homogeneous; 300,000 compounds, 1.1% hits; cell-free CFP-Ran/YFP-importin-beta FRET ratio; inhibition, % (test concentration not listed); Ran GTPase (GTP-bound) - importin-beta complex;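 active means most replicates above 15%; inconclusive means exactly half above 15%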;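 further: 0% = DMSO wells and 100% = Ran loaded with GDP instead of GTP; wells of about 40 µL received 100 nL stock; the first replicate is given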
Calb FLC = C. albicans growth inhibition with fluconazole, primary screen, CaCi-2 strain, Alamar Blue fluorescence; C. albicans CaCi-2 (fluconazole-resistant clinical isolate) + fluconazole, 48 h; growth inhibition, % (test concentration not listed); 300,000 compounds, 0.57% hits; AID 1979, 2009;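 active means most replicates above 75%; inconclusive means exactly half above 75%; inactive means most below 75%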;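 further: all wells also contain fluconazole at 8 µg/ml as a sub-toxic cotreatment; 0% = median of DMSO wells and 100% = median of geldanamycin control wells; wells of about 8 µL received 7.5 nL stock; the first replicate is given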
AF4-AF9 inh = inhibitors of AF4 peptide binding to AF9, primary screen, biochemical, AlphaScreen, biotin-AF4 peptide, FLAG-AF9, single point; 350,000 compounds, 0.47% hits; Protein AF-9 (Homo sapiens), P42568; inhibition, % at 10 µM; AID 651704, 2012;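 active means every replicate reaching a set inhibition limit, whatever the replicate mean, cut at about 25% in these data; inconclusive means mean inhibition reaches that limit but some replicates miss it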;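 further: 0% = plate neutral control median and 100% = total signal loss; the record names both 10 and 1 µM as test concentration; the first replicate is given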
Target sequence (P42568 whole entry, looked up): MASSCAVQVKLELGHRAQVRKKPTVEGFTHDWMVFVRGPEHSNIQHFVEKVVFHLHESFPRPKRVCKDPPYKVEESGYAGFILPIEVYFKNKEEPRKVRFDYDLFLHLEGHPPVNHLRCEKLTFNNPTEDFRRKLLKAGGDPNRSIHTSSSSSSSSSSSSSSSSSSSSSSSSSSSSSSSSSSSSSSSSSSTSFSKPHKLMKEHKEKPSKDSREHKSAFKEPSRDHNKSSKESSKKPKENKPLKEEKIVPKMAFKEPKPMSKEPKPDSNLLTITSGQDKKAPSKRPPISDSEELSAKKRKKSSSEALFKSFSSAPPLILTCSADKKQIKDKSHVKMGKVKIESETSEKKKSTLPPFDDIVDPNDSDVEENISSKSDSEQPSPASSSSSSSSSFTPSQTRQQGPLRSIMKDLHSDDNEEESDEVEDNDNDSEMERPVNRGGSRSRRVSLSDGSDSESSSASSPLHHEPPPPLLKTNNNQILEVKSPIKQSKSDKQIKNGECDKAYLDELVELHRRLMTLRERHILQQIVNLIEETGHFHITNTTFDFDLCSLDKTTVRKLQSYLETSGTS
Bfl-1 A1 inh = caspase 3/7 activation in MEF A1-2A-BIM cells, primary screen, A1 inhibitor project, cell-based, luminescence, HTS; Caspase-Glo 3/7 luminescence, 3 h; percent of clofoctol response, vehicle zero; caspase activation, % (test concentration not listed); 330,000 compounds, 0.066% hits;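 active means over half of replicate activation scores above 10%, or exactly half above 10 with the replicate mean above 10; inconclusive means replicate mean below 10 yet half the replicates above 10; inactive means over half of replicates below 10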;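 further: wells of about 30 µL received 50 nL stock; many hits fall short of the cut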
Beta apoptosis = inhibitors of cytokine-induced beta cell apoptosis, primary screen, luminescence. AID 435005, 2010. protection from apoptosis, % (concentration not given with the values). INS-1E cytokine-induced death, ATP luminescence, 48 h; percent of positive-control rescue, neutral wells zero. 300,000 compounds, 0.8% hits;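 active means all replicates at 75% or more, or half of them and the mean; inconclusive means half reach 75% but not the mean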;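 further: 0% = cytokine-treated negative control wells and 100% = positive control rescue; higher means more ATP so stronger rescue from cytokine killing; wells of about 40 µL received 100 nL stock; the first replicate is given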
Ecoli rRNA inh OD600 = further read-out of Ecoli rRNA inh, marked with its call; OD600 change, %; measured here: OD600 growth;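 optical density of the mix in the first replicate; 0 = DMSO median and -100 = no signal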
Ecoli rRNA inh RFP = second read-out of Ecoli rRNA inh, no call of its own (marks repeat the call); RFP signal change, %; measured here: RFP humanized mutant strains;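 first replicate; 0 = DMSO median and -100 = no signal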
* hit, by the source's call; ? = inconclusive; nt = not tested or not shown; & = joins results of further samples. An excerpt; the hit share may differ from the screen's.

SMILES	Ecoli rRNA inh	Ecoli rRNA inh OD600	Ecoli rRNA inh RFP	T cruzi repl	Vif TR-FRET	RanGTP-Impb inh	Calb FLC	AF4-AF9 inh	Bfl-1 A1 inh	Beta apoptosis
COc1ccc(S(=O)(=O)N2CCCCCC2)cc1C(=O)OCC(=O)NCC(C)C	nt	nt	nt	6	0%	2.6	-7	nt	0.4	-6
O=c1nc(/C=C/c2ccccc2C(F)(F)F)cc(C(F)(F)F)[nH]1	-10	-7	-2.1	-11	-6%	5.3	?	-0.6	0.0	nt
CN1C(=O)[C@H]2[C@@H](/C=C/c3ccccc3)N3C(=O)CN(Cc4ccccc4)C(=O)[C@@]3(C)[C@H]2C1=O	nt	nt	nt	-5	nt	5.2	-15	-0.6	-0.6	-8
COc1ccc(Br)cc1/C=N/n1c(-c2ccccc2)n[nH]c1=S	21	14	3.7	-8	-3%	1.1	2	-9.2	-0.5	nt
COc1ccc(NC2=C(NCCO)C(=O)c3ccccc3C2=O)cc1	11	15	1.8	-29	12%	3.4	9	56*	-0.6	12
COc1ccc(C(=O)NC(=S)N2CCOCC2)cc1[N+](=O)[O-]	13	11	-0.2	-27	4%	3.3	-1	-1.8	0.1	nt
CCC(=O)N/C=C/n1cnc2cc(C(F)(F)F)ccc21	nt	nt	nt	-8	?	0.5	-7	nt	-1.2	7
O=C(O)c1ccccc1C(=O)NCC(O)c1ccccc1 (stereo unspecified)	20	6	-0.5	-6	-4%	-3.7	-2	11	0.6	-1
COc1cc(C2N3CC4(C)CN2CC(C)(C3)C4)ccc1O (stereo unspecified)	nt	nt	nt	-6	7%	-0.3	3	nt	-0.2	nt
CN(C)S(=O)(=O)N1CCN(C(=O)N2CCCCCC2)CC1	nt	nt	nt	-20	7%	5.3	1	nt	-1.2	-3
COc1cccc(Nc2nc(N)c([N+](=O)[O-])c(NCc3ccccc3)n2)c1	-34*	-13*	-1.6*	48	-6%	-4.2	1	nt	-0.3	1
CCC1(C)Cc2c(sc3c2c2ncnn2c2nnc(SCC(=O)NCc4ccco4)n32)CO1 (stereo unspecified)	nt	nt	nt	1	29%	1.6	14	nt	-0.7	8
O=C(Nc1ncc2c(n1)-c1ccccc1CC2)c1ccc(F)cc1	nt	nt	nt	3	-1%	-2.1	-10	nt	-0.5	-2
NC(=O)C1CCCN(C(=O)c2ccc3oc(Cc4ccc(Cl)cc4)nc3c2)C1 (stereo unspecified)	10	14	1.8	-11	1%	2.8	5	0.9	0.2	7
CCOC(=O)C(=Cc1cc(=O)c(OC)co1)C(=O)OCC	nt	nt	nt	11	-5%	4.7	94*	-0.8	nt	nt
O=S(=O)(c1ccc(-c2ccccc2)cc1)N1CCCC1	-22	-26	1.4	-6	-2%	3.6	-5	-2.7	0.0	1
COc1cccc(-c2c3c([nH]c(=O)c2C#N)CCc2cc(OC)ccc2-3)c1	nt	nt	nt	-3	-2%	94*	1	nt	0.9	10
CNS(=O)(=O)c1cccc(C(=O)OCCCC(=O)c2ccccc2)c1	-12	-13	-1.0	nt	3%	nt	nt	-0.8	0.2	6
CSc1nc(N2CCN(c3ccccc3Cl)CC2)c2ccccc2n1	1	11	6.5	23	6%	5.5	0	-3.1	-1.0	7
CCOC(=O)c1nnn(CC(=O)Nc2cc(Cl)ccc2C)c1C(=O)OCC	nt	nt	nt	1	-1%	2.0	-8	nt	0.4	-5
Cc1cccc(NC(=O)Cc2ccc(Br)cc2)n1	2	-1	-5.5	0	nt	0.2	2	0.5	0.1	-4
O=S(=O)(Cc1ccccc1)N1CCn2c(nc3ccccc32)C1	3	9	-0.2	3	-5%	2.9	22	-7.5	0.2	-3
O=C(c1ccc2nc[nH]c2c1)N1CCN(S(=O)(=O)c2cccc(F)c2)CC1	1	1	-0.2	0	1%	3.5	4	-4.1	-0.3	0
CCN(CC)C(=O)CSc1nnc(COc2ccc(OC)cc2)n1N	4	7	-1.3	-10	nt	2.8	0	2.6	0.9	0
O=C(NCC1CCCN(Cc2ccc3c(c2)OCCO3)C1)c1ccc2c(c1)OCO2 (stereo unspecified)	12	-3	2.4	49	nt	-2.0	-14	1.7	1.5	6
O=C(NCc1ccccc1Cl)C(=O)NCC(c1ccco1)N1CCOCC1 (stereo unspecified)	13	5	-1.4	10	-3%	4.4	2	0.2	-0.4	-5
Cc1[nH]n(-c2ccc([N+](=O)[O-])cc2)c(=O)c1C=NCCN1CCN(C(=O)C(C)C)CC1	-11	-2	-1.8	0	2%	2.2	-4	0.0	-8.6	58
Cc1cccc(NS(=O)(=O)c2ccc(C)c(C(N)=O)c2)c1	nt	nt	nt	-22	nt	-2.4	-5	nt	1.4	6
COc1cc(C(=O)N(C)CC2CCN(CCc3cccc(C(F)(F)F)c3)CC2)ccc1C	-12	-10	7.5	28	nt	4.8	-4	3.4	-0.2	-1
COc1ccc(S(=O)(=O)N2CCN(c3cnccn3)CC2)cc1OC	2	5	-1.9	nt	-6%	nt	nt	-4.0	-0.4	-9
CCOc1c(N2CC(C)OC(C)C2)c(=O)c1=O (stereo unspecified)	23	7	-0.8	nt	15%	4.7	1	-4.2	0.4	3
COc1cc(/C=C/C(=O)c2ccc(NS(=O)(=O)c3ccc(C)cc3)cc2)cc(OC)c1O	nt	nt	nt	-19	nt	4.9	1	nt	1.2	-19
COc1ccc(NC(=O)CSc2nc(-c3ccncc3)nn2CC(=O)N2CCCC2)cc1	nt	nt	nt	46	-3%&-9%	-0.9	-4	nt	0.8	6
CCCCOc1ccc(-c2nnc(-c3ccco3)o2)cc1	nt	nt	nt	-19	0%	-1.5	39	nt	-4.7	5
CCN(CC)S(=O)(=O)c1cccc(-c2nc3n(n2)Cc2ccccc2-3)c1	2	0	-0.4	6	4%	0.3	17	6.3	-0.7	3
CCOC(=O)C(=O)N=Nc1c(O)[nH]c2ccccc12	nt	nt	nt	3	nt	0.5	-13	nt	-0.5	-2
COc1ccc(OCC(O)CN2CCCCCC2)cc1 (stereo unspecified)	nt	nt	nt	-7	2%	-0.2	-9	nt	0.1	nt
COc1ccc(Br)cc1CN1CCN(C(=O)c2cccc(OC)c2OC)CC1	-28*	-12*	1.3*	-2	-2%	3.4	-3	6.5	0.6	-3
O=C1COc2ccc(C(=O)COC(=O)c3cccnc3Cl)cc2N1	22	16	-0.6	-13	-70%	?	20	-2.6	1.7	2
Cc1ccccc1NC(=O)Cc1nc(CSc2nnc(C3CCCCC3)n2N)cs1	nt	nt	nt	6	3%	1.0	-8	nt	0.4	0
CCCC(=O)N(C1CC(C)C(C#N)(C#N)C1(C#N)C#N)N(C)C (stereo unspecified)	4	8	-1.4	-17	3%	4.0	1	nt	2.3	-10
CCN(CC)CCC(C)OC(=O)c1ccc(O)cc1O (stereo unspecified)	15	9	-2.5	29	-10%	-2.9	-8	0.0	0.8	1
CCCN(CCC)CCCNS(=O)(=O)c1cc(Br)cc2c1N(C(C)=O)CC2	0	15	-0.2	-14	30%	5.1	-3	nt	-1.6	0
CC[C@H](C)[C@H](NS(=O)(=O)c1ccc(C)cc1)C(=O)N1CCC(C(=O)N[C@@H](C)C(=O)O)CC1	nt	nt	nt	-16	-5%	-1.4	-5	nt	-0.3	-8
COc1ccccc1NCCC(=O)OCC(=O)Nc1ccccc1Cl	nt	nt	nt	nt	3%	nt	nt	-1.9	0.1	0
COc1ccc(S(=O)(=O)N2CCN(CC(=O)NC(Cc3ccccc3)C(C)=O)CC2)cc1 (stereo unspecified)	4	12	0.1	nt	nt	nt	nt	-1.6	-1.4	-4
Cc1ccc(-n2c(=O)[nH]cc(C(=O)Nc3ccc4c(c3)OCO4)c2=O)cc1C	0	-1	3.9	-7	nt	3.5	-6	3.4	0.9	-4
CCCC(=O)Nc1ccc(N2CCN(S(C)(=O)=O)CC2)cc1	nt	nt	nt	-4	-2%	2.2	-2	nt	1.2	-1
N/C(=N/O)c1ccccc1N1CCC(Cc2ccccc2)CC1	-46	-69	-16	39	nt	-1.9	-4	3.2	0.7	11
COc1ccc2c(c1)C=C(CN1CCN(C(C)C)C(CCO)C1)CO2 (stereo unspecified)	13	2	-1.1	46	9%	-1.3	1	1.6	0.3	-7
CCN(Cc1nc(-c2cccc(C)c2)no1)C(=O)c1ccco1	-6	-4	2.8	0	nt	-2.1	-2	-1.0	-1.1	-2
CC(C)(C)C(=O)NCCc1nc2ccccc2n1CC(=O)c1ccccc1	1	1	-0.1	5	-1%	-3.1	3	0.6	0.4	2
O=C(COc1cc(F)ccc1[N+](=O)[O-])Nc1cccc(S(=O)(=O)NC2=NCCC2)c1	nt	nt	nt	nt	-1%	nt	nt	-3.4	-0.8	-1
COC(=O)c1ccc(C2CC(=O)Nc3cc(OC)c(OC)cc32)cc1 (stereo unspecified)	nt	nt	nt	-6	1%	6.1	-15	nt	-0.5	0
CCOCCCn1c(SCC(=O)Nc2ccc3[nH]c(=O)[nH]c3c2)nc2ccccc2c1=O	-3	-5	4.7	-9	-1%	2.4	-6	4.1	0.8	nt
Cc1cccc(C(=O)NCC(=O)OCC(=O)c2cc(C)n(CC3CCCO3)c2C)c1 (stereo unspecified)	-6	-1	-0.7	-5	nt	3.9	-2	2.1	0.1	-4
C#Cc1ccc([C@@H]2C=C(C(=O)O)O[C@H](OCCCCO)C2)cc1	1	7	-3.0	-1	11%	-2.5	6	-3.2	0.7	0
Cc1c(N(C(=O)Nc2ccccc2)C2=NCC(C)S2)c(=O)n(-c2ccccc2)n1C (stereo unspecified)	nt	nt	nt	3	14%	-4.2	-35	nt	-2.1	-1
CCC1=NN2C(=N)/C(=C\c3ccc(SCc4ccco4)o3)C(=O)N=C2S1	nt	nt	nt	3	10µM*	1.9	38	nt	0.3	5
O=C(CSc1nc(=O)n(CCCN2CCOCC2)c2c1CCC2)Nc1ccccc1F	3	12	-2.5	2	0%	4.6	-3	-27	-0.7	nt
CCCCC(=O)Nc1ccc(NCc2ccc(C)s2)cc1	1	12	-0.4	3	-12%	-3.9	7	6.8	0.2	3
COc1ccc(S(=O)(=O)Nc2ccccc2C(=O)N2CCCC2)cc1C	4	-12	0.6	2	nt	4.8	14	2.8	0.2	-6
CCCCN1CC(=O)N2[C@H]3c4cc(Cl)ccc4OC[C@@H]3[C@H](c3ccccc3)[C@]2(C)C1=O	-16	-22	-1.4	nt	nt	nt	nt	-8.9	-0.4	4

Source: PubChem
